gsp antagonist – antagonizes gsp, the McCune-Albright syndrome mutation; gsp-mutant cells, cAMP HTRF, 30 min; control for the full effect not named in the record; Potency, µM (highest dose often 76.9 µM), inactives show top-dose activity change, negative = inhibition, actives largely listed as inhibitors; 340,000 tested, 0.4% active; active = falling curve of any shape with a large fitted effect; inconclusive = falling curve, mostly with a smaller effect; inactive = flat or rising curve; cell line not stated here;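 further: intracellular cAMP measured with PDE inhibitor Ro 20-1724 present during compound exposure; potency means the concentration at half of the fitted maximal effect; on the % scale 0 is the no-effect control and ±100 the full control effect; nearly all actives have a fitted effect of over 65% in size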
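G418-selected cells were plated in DMEM/10% FBS for 16-24 h at 37C, then treated with compounds plus the PDE inhibitor […] (300 uM solution added) for 30 min at 37C. Intracellular cAMP was measured by HTRF after 30 min lysis at room temperature.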
Six1-Eya2 blk – inhibitors of human Six1/Eya2 interaction. 360,000 tested, 0.56% active. AID 651725. AlphaScreen GST-Six1/His-Eya2 binding, biochemical; active compounds read low; control for the full effect not named in the record. Q15475+O00167. activity change, % (no concentration beside the values); in the data active = activity change below about -65%; inconclusive = about -30% to -65%; inactive = above about -30%; further: on the % scale 0 is the no-effect control and ±100 the full control effect
Target sequence (O00167 whole entry, looked up): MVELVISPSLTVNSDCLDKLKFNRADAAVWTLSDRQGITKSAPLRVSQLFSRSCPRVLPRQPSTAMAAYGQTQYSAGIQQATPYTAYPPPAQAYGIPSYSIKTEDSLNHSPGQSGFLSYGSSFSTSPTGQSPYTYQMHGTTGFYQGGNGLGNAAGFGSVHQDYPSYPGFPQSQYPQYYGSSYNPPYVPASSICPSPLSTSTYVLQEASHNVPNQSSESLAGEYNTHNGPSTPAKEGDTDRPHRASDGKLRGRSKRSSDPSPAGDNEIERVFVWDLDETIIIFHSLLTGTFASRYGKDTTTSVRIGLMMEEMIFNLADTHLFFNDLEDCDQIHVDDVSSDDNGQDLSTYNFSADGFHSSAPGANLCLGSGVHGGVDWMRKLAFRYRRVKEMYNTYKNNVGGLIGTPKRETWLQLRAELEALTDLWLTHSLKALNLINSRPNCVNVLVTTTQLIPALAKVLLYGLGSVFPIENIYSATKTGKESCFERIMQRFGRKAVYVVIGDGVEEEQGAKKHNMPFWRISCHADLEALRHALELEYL
Target sequence (Q15475 whole entry, looked up): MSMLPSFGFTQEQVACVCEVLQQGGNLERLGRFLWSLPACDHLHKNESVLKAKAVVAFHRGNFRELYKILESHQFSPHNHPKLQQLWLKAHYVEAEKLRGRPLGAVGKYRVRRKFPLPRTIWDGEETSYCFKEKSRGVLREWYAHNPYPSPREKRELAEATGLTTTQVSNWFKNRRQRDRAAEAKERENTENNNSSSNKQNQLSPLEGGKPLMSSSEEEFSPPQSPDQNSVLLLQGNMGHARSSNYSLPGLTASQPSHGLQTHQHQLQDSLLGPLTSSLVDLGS
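Homogeneous AlphaScreen proximity assay pairing GST-Six1 with His-tagged Eya2 (added as 5X mix: 250 nM and 500 nM) in 50 mM Tris pH 8.0, 300 mM NaCl, 1 mM TCEP. Glutathione donor and nickel acceptor beads; 1 h, 37 °C, dark.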
gsp agonist – activates gsp, the McCune-Albright syndrome mutation | Potency, µM (doses to about 76.9 µM), for the others: at the highest dose activation (cAMP increase), hits mostly activators | 340,000 tested, 0.13% active | gsp mutant cells, cAMP HTRF, 30 min; control for the full effect not named in the record | AID 624287; active = well fitted activation curve with a large enough effect; inconclusive = small, poorly fitted or top-dose-only effect, or another doubt; inactive = no such curve, though single readings can be large or run the other way; cell line not stated here;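 further: phosphodiesterase inhibitor Ro 20-1724 added with compounds to block cAMP breakdown; potency means the concentration at half of the fitted maximal effect; nearly all actives have a fitted effect of over 60% in size; about a fifth of the inactives were tested at one dose only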
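Cells in DMEM/10% FBS with G418 were pretreated with compounds in DMSO plus […] (300 uM stock) for 30 min at 37C. cAMP was measured by HTRF (cAMP-d2 plus anti-cAMP antibody-K) after 30 min at room temperature.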
D2 ag – human D2 receptor agonism in beta-arrestin assay | DiscoveRx PathHunter D2 beta-arrestin, luminescence, 90 min; 100% = 57 uM dopamine signal | activation, % (test concentration not listed) | 360,000 tested, 0.084% active; in the data active = activation above about 40%; inconclusive = about 15% to 40%; inactive = below about 15%; further: compound concentration not given in the record; the text of the record calls up to 30% inactive
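Agonist mode: compounds alone added to overnight-plated D2 PathHunter cells for 90 min at 37 C, with 57 uM final dopamine (EC100) defining full response. Beta-arrestin recruitment detected by chemiluminescent reagent, read after 1 h at ambient temperature.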
CtBP-E1A blk – inhibitors of CtBP/E1A interaction; AlphaScreen GST-E1A/His-CtBP binding, 1536-well; active compounds read low; control for the full effect not named in the record; activity change, % (test concentration not listed); 340,000 tested, 0.49% active; in the data active means activity change below about -65%; inconclusive means about -30% to -65%; inactive means above about -30%; further: on the % scale 0 is the no-effect control and ±100 the full control effect
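In 5 uL wells, 23 nL compound meets equimolar GST-E1A and His-CtBP (5X stock 125 nM each) for 2 h, 37 °C. Beads (5X, 50 ug/mL) then 1 h, 37 °C, dark.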
D2 PAM – positive allosteric modulators of human D2 dopamine receptor; P14416; DiscoveRx D2 beta-arrestin cells, luminescence, 90 min; 100% = 57 uM dopamine signal; potentiation, % (concentration not given with the values); 360,000 tested, 0.23% active; AID 624464; active = potentiation of 50% or more; inconclusive = 30% to 50%; inactive = 30% or less;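 further: compound concentration not given in the record; tested on top of an EC20 dose of dopamine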
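D2 cells co-treated with compound plus 50 nM dopamine (EC20) for 90 min at 37 deg C to detect potentiation. Beta-arrestin recruitment was read as enzyme-fragment luminescence after 1 h at ambient temperature. Full response was set by 57 uM dopamine.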
* = called active by the depositor; u = inconclusive; x = not tested or not shown; [ ] = another dose, or the depositor's remark. Hits appear at their usual frequency (roughly 1.4% active in at least one column).

The opening 19 records as a preview:
SMILES	gsp antagonist	Six1-Eya2 blk	gsp agonist	D2 ag	CtBP-E1A blk	D2 PAM
Cc1cc(-c2ccc3c(c2)COc2c4ccccc4nn2-3)on1	-2%	-2	x	0.9	-1	-34
S=C(S)N1CCCC1	3%	-1	x	3.8	2	-6
CC(=O)c1c(Cl)nc2ccc(Br)cc2c1-c1ccccc1	8%	10	-10%	-0.3	x	-10
CN(CCO)CCOCCOc1cccc2ccccc12	-6%	2	9%	-2.1	-7	-16
CCCc1nc2ccccc2n1C(=S)SC	1%	-14	-17%	-5.5	-8	-5
COC(=O)C(NC(=O)C(C)NC(=O)OCc1ccccc1)C(C)C (centres undefined)	5%	-5	12%[15.4 µM]	-4.4	-10	-5
NC(=O)c1ccccc1NC(=O)CCCc1ccccc1	-2%	2	2%	5.6	-8	-3
C/C(=N\OCC(=O)Nc1ccccc1C(=O)O)c1cccs1	-18%	-1	-2%	0.7	5	5
COc1ccc(S(=O)(=O)N2CC=C(C(=O)Nc3ccc(NC(C)=O)cc3)CC2)cc1	-31%	1	-4%[15.4 µM]	-4.1	0	-14
O=C(c1cccs1)N1CCN(Cc2cccnc2)CC1	2%	5	-49%[inhibitor]	u	-15	14
CCc1ccc(S(=O)(=O)N/N=C\c2ccc3c(c2)OCO3)cc1	1%	-18	u	-4.2	-3	-11
C/C(=N\NC(=O)C(N)=O)c1cccc(C(F)(F)F)c1	x	0	0%[15.4 µM]	-1.3	0	6
COC(=O)c1oc2ccccc2c1-n1cccc1	17%	-1	26%	-4.9	0	0
O=C(NC(Cc1nn[nH]n1)C(=O)OCc1ccccc1)OCc1ccccc1 (centres undefined)	x	1	-19%	-1.2	-14	-13
COc1cc(C2C(C#N)=C(C)NC3=C2C(=O)CC(C)(C)C3)ccc1OCCO (centres undefined)	7%	0	2%	1.0	9	-4
CCOc1ncccc1C(=O)OCC(=O)Nc1c(C)cccc1C	8%	7	1%	-5.1	10	-6
CCOc1c(C)cnc2c1c(=O)n(Cc1cccc(Cl)c1)c(=O)n2C	-13%	12	17%	1.1	15	-9
C=CCN(Cc1ccco1)S(=O)(=O)c1ccc(Cl)cc1	5%	-4	u	-0.5	-19	-11
Cc1nn(-c2ccccc2)c(C)c1C(=O)OCC(=O)N(C)C1CCS(=O)(=O)C1 (centres undefined)	-6%	20	4%	-0.5	29	-2

The list itself, from the start:
SMILES	gsp antagonist	Six1-Eya2 blk	gsp agonist	D2 ag	CtBP-E1A blk	D2 PAM
Cc1cc(-c2ccc3c(c2)COc2c4ccccc4nn2-3)on1	-2%	-2	x	0.9	-1	-34
S=C(S)N1CCCC1	3%	-1	x	3.8	2	-6
CC(=O)c1c(Cl)nc2ccc(Br)cc2c1-c1ccccc1	8%	10	-10%	-0.3	x	-10
CN(CCO)CCOCCOc1cccc2ccccc12	-6%	2	9%	-2.1	-7	-16
CCCc1nc2ccccc2n1C(=S)SC	1%	-14	-17%	-5.5	-8	-5
COC(=O)C(NC(=O)C(C)NC(=O)OCc1ccccc1)C(C)C (centres undefined)	5%	-5	12%[15.4 µM]	-4.4	-10	-5
NC(=O)c1ccccc1NC(=O)CCCc1ccccc1	-2%	2	2%	5.6	-8	-3
C/C(=N\OCC(=O)Nc1ccccc1C(=O)O)c1cccs1	-18%	-1	-2%	0.7	5	5
COc1ccc(S(=O)(=O)N2CC=C(C(=O)Nc3ccc(NC(C)=O)cc3)CC2)cc1	-31%	1	-4%[15.4 µM]	-4.1	0	-14
O=C(c1cccs1)N1CCN(Cc2cccnc2)CC1	2%	5	-49%[inhibitor]	u	-15	14
CCc1ccc(S(=O)(=O)N/N=C\c2ccc3c(c2)OCO3)cc1	1%	-18	u	-4.2	-3	-11
C/C(=N\NC(=O)C(N)=O)c1cccc(C(F)(F)F)c1	x	0	0%[15.4 µM]	-1.3	0	6
COC(=O)c1oc2ccccc2c1-n1cccc1	17%	-1	26%	-4.9	0	0
O=C(NC(Cc1nn[nH]n1)C(=O)OCc1ccccc1)OCc1ccccc1 (centres undefined)	x	1	-19%	-1.2	-14	-13
COc1cc(C2C(C#N)=C(C)NC3=C2C(=O)CC(C)(C)C3)ccc1OCCO (centres undefined)	7%	0	2%	1.0	9	-4

Shown bar-delimited: 2 of the compounds above
SMILES | gsp antagonist | Six1-Eya2 blk | gsp agonist | D2 ag | CtBP-E1A blk | D2 PAM
NC(=O)c1ccccc1NC(=O)CCCc1ccccc1 | -2% | 2 | 2% | 5.6 | -8 | -3
C/C(=N\OCC(=O)Nc1ccccc1C(=O)O)c1cccs1 | -18% | -1 | -2% | 0.7 | 5 | 5

The list goes on:
SMILES	gsp antagonist	Six1-Eya2 blk	gsp agonist	D2 ag	CtBP-E1A blk	D2 PAM
CCOc1ncccc1C(=O)OCC(=O)Nc1c(C)cccc1C	8%	7	1%	-5.1	10	-6
CCOc1c(C)cnc2c1c(=O)n(Cc1cccc(Cl)c1)c(=O)n2C	-13%	12	17%	1.1	15	-9
C=CCN(Cc1ccco1)S(=O)(=O)c1ccc(Cl)cc1	5%	-4	u	-0.5	-19	-11
Cc1nn(-c2ccccc2)c(C)c1C(=O)OCC(=O)N(C)C1CCS(=O)(=O)C1 (centres undefined)	-6%	20	4%	-0.5	29	-2
O=c1o[nH]c(-c2ccccc2)c1N=Nc1c(F)cccc1Cl	u	-5	-11%	2.3	-4	0
Cc1ccc(-n2c3c(c(O)c(-c4ccccc4)c2=O)C(=O)CC(C)(C)C3)cc1	-25%	-3	-5%	-2.5	-4	-7
O=C(Nc1cccc2nsnc12)c1ccc(-c2ccc(Br)cc2)o1	11%	-15	-14%	2.0	-1	10
Cc1cccc(-n2ncc3c2CCCC3NC(=O)Cc2c(C)noc2C)c1C (centres undefined)	-5%	0	-26%	-0.8	1	-7
CN(CC(=O)Nc1ccc(S(N)(=O)=O)cc1)c1ccccc1	11%	-4	-4%	-1.7	-1	1
Cn1c2c(c(=O)[nH]c1=O)C(c1cccc(O)c1)C1=C(N2)c2ccccc2C1=O (centres undefined)	-2%	-19	-66%[inhibitor]	-4.4	-12	-6
NC(=O)COC(=O)c1cccc(S(=O)(=O)N2CCN(c3ccc(F)cc3)CC2)c1	-2%	8	7%[15.4 µM]	-2.2	-3	-6
COc1ccc(N(C(=O)CNC(=O)c2ccco2)C(C(=O)NC2CCCC2)c2ccncc2)cc1 (centres undefined)	5%	0	3%	0.2	-2	-3
CC(=O)c1ccc(NC(=S)Nc2cccc3ccccc23)cc1	12%	1	4%	-1.7	-6	-10
CC(NC(=O)COC(=O)c1cc(NS(=O)(=O)c2ccc(Cl)c([N+](=O)[O-])c2)ccc1O)C1CC2CCC1C2 (centres undefined)	u	0	18%	5.5	0	-12
Cc1ccc(NC(=O)CN(C)C(=O)C2CSC3(C)CCC(=O)N23)cc1 (centres undefined)	x	14	-35%[inhibitor]	-5.6	-7	-16
O=C(CN1C(=O)NC2(CCc3ccccc32)C1=O)c1ccc(F)c(F)c1 (centres undefined)	3%	11	-2%	4.0	-26	13
O=C(COC(=O)c1ccc(O)cc1)Nc1ccc(S(=O)(=O)N2CCCC2)cc1	-7%	-5	-1%	-1.3	-25	-6
CC(=O)NC1=NN(C(C)=O)C(c2sccc2C)S1 (centres undefined)	1%	4	-34%[inhibitor]	-4.8	3	7
O=C(Nc1c(F)cc(F)cc1Br)C1CCCO1 (centres undefined)	6%	5	5%	-0.7	1	-6
CCC(C)[C@H](NC(=O)OC(C)(C)C)C(=O)N/N=C/c1cccc2nccnc12 (some centres undefined)	-7%	-16	16%	-2.1	-27	-2
Cc1cccc2sc(NC(=O)CCn3cccc3)nc12	-10%	-11	13%[15.4 µM]	-8.3	-5	8
Cc1ccc(-c2nc(CS(=O)CC(=O)NCCN3CCCC3)c(C)o2)cc1 (centres undefined)	15%	18	-12%	-5.0	0	-4
Cc1ccc(NC(=O)CSCC(=O)Nc2cccc(S(=O)(=O)N3CCCCCC3)c2)cc1	-17%	6	16%	-3.3	x	-18
Cn1c(=O)c(=O)n(C)c2cc(S(=O)(=O)N3CCCC3C(=O)NCc3ccco3)ccc21 (centres undefined)	13%	-1	-2%	-4.1	5	-6
COc1ccc2oc3cc(C)[n+]([O-])c(-c4ccc(Br)cc4)c3c2c1	0%	6	4%	-7.6	-5	-1
CCOC(=O)c1ccc(NC2c3ccccc3C(=O)N2c2cccnc2)cc1 (centres undefined)	-19%	0	28%	-4.8	2	-5
CCS(=O)(=O)N1CCCC(C(=O)NCc2ccc(C)cc2)C1 (centres undefined)	9%	11	8%	0.6	-1	0
CCOC(=O)C(NC(=O)c1ccccc1)(N1CCCC1=O)C(F)(F)F (centres undefined)	14%	0	-25%	-0.8	-2	7
COc1ccc2cc(CCNC(=O)C3CCCC3)c(=O)[nH]c2c1	-1%	-2	3%	2.5	-2	-4
Cc1c(CCC(=O)NCCCn2ccnc2)c(=O)oc2cc3occ(C(C)(C)C)c3cc12	-8%	-5	15%	-1.0	-2	2
Cc1ccc(NC(=O)COC(=O)CSC(=S)N2CCOCC2)cc1C	x	0	-3%[15.4 µM]	-1.4	-13	-14
Cc1ccc(NC2CCCN(C(=O)c3ccoc3C)C2)cc1C (centres undefined)	6%	-2	u	-1.5	20	13
COc1cccc(NC(=O)CSc2nc(O)c(C)c(=O)n2-c2ccc(C)cc2)c1	-16%	-10	-7%[15.4 µM]	-5.5	17	-6
c1ccc(CCNc2ccc3nncn3n2)cc1	11%	2	-27%	-2.9	4	-6
COc1ccc(-c2coc3c(C(=O)Nc4cc(OC)c(OC)c(OC)c4)cccc23)c(C)c1	x	-14	x	6.8	-12	-2
Cc1ccc(C)c(NC(=O)C(c2ccccc2)N2CCN(CC(=O)NC3CC3)CC2)c1 (centres undefined)	-10%	1	u	-8.4	1	-37
CCOC(=O)N/N=C/c1cn(Cc2ccc(F)cc2)c2ccccc12	6%	8	0%	-1.5	x	-14
Cc1ccc(S(=O)(=O)NCC(=O)NCC(=O)N2CCN(c3ncccn3)CC2)cc1C	4%	6	1%[15.4 µM]	0.7	-4	0
